Screening results: PubChem BioAssay, Fisher Drug Discovery Resource Center
NPYLR7 ag – agonists of mosquito NPYLR7 receptor, primary screen, cell-based, Aedes aegypti, calcium fluorescence, mosquito biting behavior. Aedes aegypti neuropeptide Y-like receptor 7 (NPYLR7). HEK293T NPYLR7/Galpha15, GCaMP6s calcium fluorescence. activation, % at 10 µM. AID 1259423, 2018. 270,000 compounds, 0.15% hits; in the data active = activation above about 40%;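 also: 0% = vehicle and 100% = reference agonist at the receptor; some compounds past the cut are filed as inactive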
NPYLR7 ag max-min – further read-out of NPYLR7 ag, marked with its call; activation, %; measured here: Max-Min RFU normalised activation; some inactives read as strong as hits;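 span of the calcium signal over five minutes; 0% = vehicle and 100% = native peptide agonist; compound fluorescence can raise it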
* marks the source's active call; other numbers are inactive results; & = joins results of further samples.

The first 2 records, ahead of the listing:
Below each SMILES: NPYLR7 ag	NPYLR7 ag max-min
- COc1ccc(-n2ncc3c2CC(C)(C)CC3NC(=O)c2cnsn2)cc1 (centres undefined)
 : 9	5
- Cn1cccc1C1=NNC(=Nc2ccc(Cl)cc2)SC1
 : 0	-1

All compounds of this part (from the top)
Below each SMILES: NPYLR7 ag	NPYLR7 ag max-min
- COc1ccc(-n2ncc3c2CC(C)(C)CC3NC(=O)c2cnsn2)cc1 (centres undefined)
 : 9	5
- Cn1cccc1C1=NNC(=Nc2ccc(Cl)cc2)SC1
 : 0	-1
- Cn1[nH]c(-c2ccncc2)cc1=O
 : 16	7
- COc1ccc(C(N)Cc2nc(C)nn2-c2ccccn2)cc1OC (centres undefined)
 : 17	9
- Cc1cc(=O)[nH]c(-n2nc(-c3cccs3)cc2NC(=O)c2ccc(Br)o2)n1
 : 0	2
- CCC(C)(O)C#CCN1CCCCC1 (centres undefined)
 : 5	5
- COCCS(=O)(=O)N1CCc2cc(Br)ccc21
 : 1	340
- COc1ccccc1C(=O)N1CCN(c2cc(Oc3ccc(F)c(Cl)c3)ncn2)CC1C (centres undefined)
 : 11	7
- CCOc1cc(C2C(C(=O)OC)=C(C)NC3=C2C(=O)CC(c2ccccc2)C3)ccc1O (centres undefined)
 : 5	0
- Cc1cc(C(=O)N(C)CCNC(=O)C(F)(F)F)nn1C
 : -10	-16

Complete entries, looked up by structure.
`COCCS(=O)(=O)N1CCc2cc(Br)ccc21` as listed: NPYLR7 ag: 1; NPYLR7 ag max-min: 340
`Cn1[nH]c(-c2ccncc2)cc1=O` as listed: NPYLR7 ag: 16; NPYLR7 ag max-min: 7

(listing goes on)
Below each SMILES: NPYLR7 ag	NPYLR7 ag max-min
- COc1ccc(OC)c(S(N)(=O)=O)c1
 : 1	-4
- CC1(C(=O)NCc2cccc3ccccc23)CCN1Cc1ccccc1OC(F)F (centres undefined)
 : -2	-4
- CC(=O)n1c(C=C2C=c3cccc(C)c3=NC2=O)c(O)[nH]c1=S
 : -1	-4
- COCCCN(CC(=O)N(CCc1ccc(OC)c(OC)c1)Cc1ccc(C)s1)C(=O)Nc1cccc(Br)c1
 : 1	-7
- Cc1nn(C)c(C)c1CN(C(=O)CCc1nnc(Cc2c[nH]c3ccccc23)o1)C(C)C
 : 0&15	-2&1
- CC(=O)Nc1cccc(NC(=O)C2CCN(c3ccc(-c4ccccc4C)nn3)CC2)c1
 : -10	-15
- Cc1ccc(-c2nc(C=Nc3ccc(F)c(Cl)c3)c(O)o2)cc1
 : -10	-11
- C=CCNC(=O)COc1coc(CN2CCN(Cc3ccccc3)CC2)cc1=O
 : -1	29
- O=C(Nc1ccc(N2CCC(Cc3ccccc3)CC2)c(C(=O)NCC2CCCO2)c1)c1ccc(C(F)(F)F)cc1 (centres undefined)
 : 15	18
- O=C(c1ccccc1)N1CCN(Cc2ccc(C3CCCCO3)o2)CC1 (centres undefined)
 : 23	7
- CCOC(=O)C1=C(C)N(C)C(=O)NC1c1ccc(O)c(OCC)c1 (centres undefined)
 : 0	-8
- CCC(CC)C(=O)N1[C@@H](c2ccco2)[C@@H](C(=O)O)C[C@]12CCCCN(CCOC)C2=O
 : 2	1
- CCOC1CC(N(C)c2c(C#N)c(=O)n(C)c(=O)n2C)C1(C)C (centres undefined)
 : 4	12
- CC(C)C(CNC(=O)c1ccc2c(c1)COC2)Nc1ccccc1 (centres undefined)
 : 1	2
- COc1ccc(-c2nnc3ccc(SCC(=O)Nc4ccc(C)cc4C)nn23)cc1OC
 : 2	13
- CCOC(=O)c1c(NC(=O)c2c(-c3ccccc3)noc2C)sc2c1Cc1ccccc1-2
 : 8	2
- Cc1ccc(C(=O)NC(C)c2ccc(F)c(F)c2)cc1F (centres undefined)
 : 2	8
- CC(=O)c1ccc(C(=O)N(CCCN(C)C)c2nc3cc(C)cc(C)c3s2)cc1
 : 5	3
- C=CCN1C(=O)C(Cc2ccc(SC(F)F)cc2)SC1=Nc1ccc(C(=O)O)cc1 (centres undefined)
 : -12	-21
- COc1cccc(C(=O)N(CC(=O)N2CCc3sccc3C2c2ccc(C)cc2)C2CC2)c1 (centres undefined)
 : 1	10
- COc1ncccc1C(=O)N1CCC(Cc2cccc(C(=O)O)c2)C1 (centres undefined)
 : 3	3
- O=C1c2ccccc2C(=O)N1OCCOCCOCCBr
 : -4	-5
- CCn1ccnc1CN(C)Cc1cn(Cc2ccccc2)nc1-c1cc2ccccc2o1
 : 5	0
- NCCOc1ccc2ccccc2n1
 : 19	13
- Cc1nc(C2CN(CC(=O)N(C)C3(C#N)CCCCC3)CCO2)n[nH]1 (centres undefined)
 : 16	12
- N#Cc1ccccc1NC(=O)CSc1cn[nH]n1
 : -9	-14
- O=C(OCc1cc(-c2cccs2)on1)c1ccccc1S(=O)(=O)C(F)F
 : -1	-4
- COc1ccc(CCOc2nc(-c3ccc(F)cc3)n(-c3cccc(NC(=O)C4CCC4)c3)n2)cc1
 : 1	18
- CCNC(=O)N1CCC(C(NC(=O)c2ccccc2F)C(=O)NCCCOC)CC1 (centres undefined)
 : 0	2
- CCOC(=O)C1=C(C)N=c2s/c(=C\c3ccc(N(C)C)cc3)c(=O)n2C1c1ccc(Cl)cc1 (centres undefined)
 : 11	18
- O=C(NCc1ccc2c(c1)OCO2)c1csc(CSc2nnc(-c3ccco3)n2-c2ccccc2F)n1
 : 10	11
- COc1cc(NC(=O)C2(C)CCCN2C(=O)C(C)C)cc(OC)c1OC (centres undefined)
 : 0	-2
- CCOc1cccc(CNc2nnnn2C)c1OCc1ccccc1
 : 0	-1
- COc1cc(C=CC(=O)c2ccc(C#N)cc2)cc(OC)c1OC
 : -1	-4
- CCN1CCN(C(c2ccc(C)cc2)C2Sc3nc(C)nn3C2=O)CC1 (centres undefined)
 : 4	3
- O=C(c1ccc(-n2cnnc2)cc1)N1CC=C(c2ccccc2)CC1
 : 0	-3
- COc1ccccc1CN1C(=O)C(C)Oc2ccc(C#N)cc21 (centres undefined)
 : 5	2
- CCCc1ncc(C(O)c2ccc(C(C)C)cc2)n1C (centres undefined)
 : 14	10
- COc1ccc2ccc(OCc3nnnn3C3CC3)cc2c1
 : 2	-1
- C=CCn1c(SCCc2ccccc2)nc2c1c(=O)[nH]c(=O)n2C
 : -6	-4
- CCOC(=O)[C@H]1C[C@]2(CCCCN(CCOC)C2=O)N(C(=O)c2cccc(OC)c2)[C@H]1c1ccco1
 : 3	5
- Cc1ccc(NCCNCc2ccccc2Cl)nn1
 : 11	7
- CCOC(=O)C1=C(CC)NC(CC)=C(C(=O)OCC)C1C(=O)O
 : 6	4
- c1ccc(CN2CCC3(CCCc4ccccc43)CC2)cc1
 : 2	-24
- Cn1nc(C(=O)Nc2ccc(-c3nccs3)cc2)ccc1=O
 : 12	12
- Cc1ccc(C)c(-c2ccc3nc(-c4cccc([N+](=O)[O-])c4)c(CN4CCNCC4)n3c2)c1
 : 21	12
- O=C(NCC1CCCO1)c1coc(CN(Cc2cccc(C(F)(F)F)c2)Cc2cccs2)n1 (centres undefined)
 : 13	-1
- O=C(NCCc1ccc(Cl)cc1)c1cn(C2CCCCC2)nn1
 : 12	3
- Cc1ccc(-c2cc(C(=O)NCc3cccc(C(F)(F)F)c3)n(-c3ccc(Cl)c(Cl)c3)n2)cc1C
 : 1	5
- CN(C)CCN1C(=O)C(O)=C(C(=O)c2cccs2)C1c1ccco1 (centres undefined)
 : 17&-2	11&-5

(continued)
Below each SMILES: NPYLR7 ag	NPYLR7 ag max-min
- CN1CCN(CC(O)Cn2cc(/C=N\O)c3ccccc32)CC1 (centres undefined)
 : -9	-17
- CCNC(=O)NC(=O)C(C)OC(=O)c1[nH]c(C)c(C(C)=O)c1C (centres undefined)
 : 1	8
- Cc1cn2c3c(=O)[nH]c(=O)n(C)c3nc2n1-c1ccccc1O
 : 8	6
- CCOC1CCN(C(=O)NCCc2ccc(F)cc2F)CC1
 : 7	6
- COc1ccccc1-n1cc(C(=O)N2CCNCC(CC(=O)O)C2)cn1 (centres undefined)
 : -2	-2
- CCC(C)N(Cc1ccc(OS(=O)(=O)c2ccc(OC)cc2)cc1)C(=O)c1ccccc1Cl (centres undefined)
 : 0	7
- O=C(Nc1cccnc1Cl)c1c(O)c2ccccc2[nH]c1=O
 : 14	5
- c1cnc2c(c1)ccc1cccnc12
 : -11&1	-17&-20
- CCNC(=O)OC1CCN(C(=O)c2ccc3c(c2)OCO3)CC(=O)N(C)c2ccccc21 (centres undefined)
 : 6	15
- COc1cccc(CC2CN(c3ccc4cccc(OC)c4n3)CCO2)c1 (centres undefined)
 : 3	1

Another view of part of the listing above.
canonical_smiles	NPYLR7 ag	NPYLR7 ag max-min
CCC(C)N(Cc1ccc(OS(=O)(=O)c2ccc(OC)cc2)cc1)C(=O)c1ccccc1Cl (centres undefined)	0	7
O=C(Nc1cccnc1Cl)c1c(O)c2ccccc2[nH]c1=O	14	5

Going on with the list.
Below each SMILES: NPYLR7 ag	NPYLR7 ag max-min
- CC(=O)c1ccc2cc(OCC(=O)NC(C)C3CC3)ccc2c1 (centres undefined)
 : 6	4
- Cc1nc(C(C)C)cc(N2CCN(Cc3ccc(Cl)s3)CC2)n1
 : 15	2
- O=C(c1ccc(N2CCC(NCC3(c4ccccc4)CCOCC3)CC2)cc1)N1CCCC(O)C1 (centres undefined)
 : 23	9
- CCNC(=S)N1CCC(C(NC(=O)c2ccc(OC)cc2)C(=O)NCC(C)C)CC1 (centres undefined)
 : -10	-2
- CCn1c(SCc2ccc(C(=O)NCc3ccncc3)cc2)nnc1-c1ccc(C)cc1
 : 14	20
- CCOc1ccc2nc(-c3nccn3CCOC)ccc2c1
 : 5	4
- C[n+]1c(C2C(=N)N(c3ccccc3)CC2=O)sc2ccccc21 (centres undefined)
 : 7&2	11&2
- Cc1cccn2cc(C(=O)N[C@@H]3C[C@H]4C(=O)NCC(=O)N4C3)nc12
 : 0	-10
- Cc1nc(C)c(C(=O)N2CCSC(c3ccccc3)C2)o1 (centres undefined)
 : -1	-2
- O=C(Nc1ccc(-c2cnc(C3CC3)o2)cc1)C1CCCC1
 : 11	8
- COc1cc(/C=C/C(=O)NC(C#N)c2cccc(Cl)c2)ccc1OC(C)C (centres undefined)
 : 0	3
- Cc1cc(C(C)(C)C)cc(C)c1CCNC(=O)NC(C)c1ccccn1 (centres undefined)
 : 5	5
- Cn1cnnc1C1CCCN(Cc2cn(-c3ccc(F)cc3)nc2-c2ccccc2Cl)C1 (centres undefined)
 : 16	0
- FC(F)(F)C(Oc1nc(N2CCCCC2)nc(N2CCOCC2)n1)C(F)(F)F
 : -2	-10
- COCCNC(=O)c1ccc(CSc2nc(Cl)cc(N3CCN(c4cccc(C(F)(F)F)c4)CC3)n2)cc1
 : 17	24
- COc1ccc(-c2c(C)nn3c4c(nnc23)C(=O)CC(C)(C)C4)cc1
 : -16	-22
- CCOc1ccc(/C=C/C(=O)N2CC=C(c3ccccc3)CC2)cc1
 : 5	7
- CC(=O)Nc1ccc(C(C)=O)cc1OCC(=O)Nc1c(F)cccc1F
 : 0	0
- CN1CCN(CCCC#N)c2ccc(F)cc21
 : 0	-5
- CC1(C(=O)Nc2ccc3c(c2)OCO3)CCN1C(=O)C1CCCCC1 (centres undefined)
 : 4	2
- Cc1nc(-c2ccc(Cl)cc2)nc(N2CCNCC2)c1C
 : -3	9
- O=C(OCc1cc(-c2cc3ccccc3o2)on1)c1cc2ccccc2oc1=O
 : 1	1
- COc1cc(OC)cc(C(=O)NCC2CCCN(Cc3cc4ccccc4o3)C2)c1 (centres undefined)
 : 20&8	15&2
- Cc1cn2c3c(=O)n(CCC(C)C)c(=O)n(C)c3nc2n1-c1ccccc1F
 : 6	8
- COc1ccc(CN2CCN(C3CCN(c4ccccc4)CC3)CC2CCO)c(F)c1 (centres undefined)
 : -5	-6
- COCCNC(=O)c1coc(CN(Cc2ccoc2)Cc2cccc(C(F)(F)F)c2)n1
 : 9	18
- COc1cccc2c1OCCCN(C(=O)c1cn3c(n1)CNCC3)C2
 : 2	1
- CCOc1ccccc1CN1CCN(Cc2cccc(C)n2)CC1CCO (centres undefined)
 : -6	-6
- O=C(CCN1CCC(O)(c2ccc(F)cc2)CC1)Nc1nnc(C2CC2)s1
 : 0	-5
- CSc1ccc(CN2CCN(CC=C(C)C)C(CCO)C2)cc1 (centres undefined)
 : 2&0	-2&-2
- O=C(NC1CCCCC1)OCC1CN(C2CCCCC2)C(=O)O1 (centres undefined)
 : -3	0
- O=C(Cc1ccc2c(c1)OCO2)c1cc2c(cc1Br)OCO2
 : -7	-8
- COC(=O)c1ccc2c(c1)nc(CC(=O)NCc1ccncc1)n2Cc1ccc(Cl)cc1
 : 6	6
- CSCCC(=O)N1CCN(c2nc3nccc(-c4cccc(C(F)(F)F)c4)n3n2)CC1
 : -3	-7
- c1ccc(C2(NCc3csc4ccccc34)CCC2)cc1
 : 8	6
- CCCCN1CCc2ccc(NC(=O)c3cccnc3)cc21
 : 5	4
- COc1cccc(CN(C)C(=O)C2CC(=O)N(C3CCOCC3)C2)c1 (centres undefined)
 : -4	-9
- CCN(C(C)C(=O)c1c(C)c(C(=O)OC)n(C)c1C)S(=O)(=O)c1ccc(NC(C)=O)cc1 (centres undefined)
 : 21	22
- Cc1ccc(N=C2NN=C(c3cc(F)ccc3F)CS2)c(C)c1
 : -1&0	0&4
- COCCCN(Cc1c(C)nn(-c2cccc(F)c2)c1N1CCN(C)CC1)C(=O)C1CC1
 : 0	9
- CCN1CCCC1CNC(=O)CCC1CCN(Cc2cnc(N(C)C)s2)CC1 (centres undefined)
 : 3	2
- CN(CC(=O)N1CCCC1)C(=O)CCc1cccc(Cl)c1Cl
 : 4	0
- O=C(Cn1cncn1)NC12CC3CC(CC(C3)C1)C2
 : 5	4
- COCCNC(=O)Cn1nc2c(c1NC(=O)CCc1ccccc1)CSC2
 : -6	-3
- CC(=O)Nc1ccc(S(=O)(=O)NCc2nnnn2-c2ccc(C)cc2)cc1
 : -2	-2
- COc1ccc(Cn2cc(C(=O)N(C)Cc3ccnc4ccccc34)nn2)cc1
 : 0	-2
- COc1ccccc1-c1c(C)noc1-c1ccc(O)cc1O
 : 2	-3

The list is partial; the hit share may differ from the screen's.
